MgrA-DNA mod: S. aureus MgrA-DNA binding modulation; fluorescence polarization; inhibition, %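 (about 10 µg/mL by stock and volumes)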; actives 0.13% (n = 84,000);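 active = above 50% in either of two replicates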;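 note: 0% = protein plus DNA without compound and 100% = DNA alone without protein; higher means less MgrA bound to DNA so lower polarization; one replicate is shown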
Sa helicase inh: blocks Staphylococcus aureus DNA helicase | purified S. aureus helicase, fluorescence unwinding assay; about half of the hits fall short of the stated cut | inhibition, %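 (tested at about 80 µM)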 | actives 0.05% (n = 120,000) | AID 485395;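 active = both duplicates at 50% or more, or one of them with a favoured structure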;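 note: 0% = mean of negative control wells and 100% = mean of positive control wells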
Numbers without * were called inactive; nt = not tested or not shown.

Start of the data: the first three entries (preview)
MgrA-DNA mod,Sa helicase inh,smiles
nt,7,OCCNc1cc(-n2nc(-c3ccccc3)cc2-c2ccccc2)ncn1
-0.8,nt,COC(=O)c1c(NC(=O)CCN2C(=O)c3cccc([N+](=O)[O-])c3C2=O)sc2c1CCC(C)C2 (stereo not given)
8.7,nt,O=C1C=CC(=O)N1c1ccc(-n2ccc(C(F)(F)F)n2)cc1

This part in full, from the start:
MgrA-DNA mod,Sa helicase inh,smiles
nt,7,OCCNc1cc(-n2nc(-c3ccccc3)cc2-c2ccccc2)ncn1
-0.8,nt,COC(=O)c1c(NC(=O)CCN2C(=O)c3cccc([N+](=O)[O-])c3C2=O)sc2c1CCC(C)C2 (stereo not given)
8.7,nt,O=C1C=CC(=O)N1c1ccc(-n2ccc(C(F)(F)F)n2)cc1
5.2,9,COc1ccc(N/C(C)=C/C(=O)c2ccccc2)cc1
2.0,nt,Cc1nc(-c2noc(C)n2)no1
6.1,nt,CNC(=O)Sc1ccccc1Cl
-2.8,3,N#Cc1ccc(NC(=O)COC(=O)c2ccc(F)cc2)cc1
-1.5,nt,O=C1CCCN1c1ccc(OC(F)(F)F)cc1
0.2,2,Cc1ccc(C(C)C)c(OCC(=O)Nn2c(=O)[nH]c3ccccc3c2=O)c1
nt,12,CC(C)CNC(=O)c1ccccc1S(=O)(=O)N1CCCCC1
-1.9,17,O=C(CCc1ccc(S(=O)(=O)NCc2ccccc2)cc1)N1CCCC1
0.4,14,O=C(CS(=O)(=O)c1cccc2nsnc12)N1CC(=O)N(CCc2ccccc2)C(=O)C1
5.1,13,O/N=C1/CCCc2nn(-c3ccccc3)nc21
-0.3,3,CS(=O)(=O)N1CCCc2cc(Br)ccc21
0.3,0,NS(=O)(=O)c1ccc(NC(=S)NC(=O)c2cccnc2)cc1
0.4,9,COc1cccc(CNC(C)c2ccccc2)c1OCc1ccccc1F (stereo not given)
2.7,nt,FC(F)(F)COc1ccc(OCC(F)(F)F)c(-c2ncn[nH]2)c1
nt,20,CCOP(=O)(c1ccccc1)c1nc(-c2ccc(Cl)cc2)oc1NC (stereo not given)
0.5,9,O=C(Nn1nnnc1Nc1ccccc1)C12CC3CC(CC(C3)C1)C2
-1.0,nt,O=C1CCc2cc(C(=O)CSc3ccccc3)ccc2N1
0.1,13,Cc1cc(C)c2nc(NC3=NC(c4ccccc4)CC(=O)N3)nc(C)c2c1 (stereo not given)
1.1,nt,CC(C)(C)c1ccc(Oc2ccc(NC(=O)Nc3cccs3)cn2)cc1
1.1,5,Cc1cc(C)nc(Nc2nc3ccccc3s2)n1
-0.4,nt,COc1cccc(NC(=O)c2cc(-c3cccs3)nc3ccccc23)c1
0.1,nt,Cc1cc(OC(=O)c2ccno2)cc(C)c1Cl
-1.9,nt,OC(CN1CCN(Cc2c(F)cccc2Cl)CC1)Cn1ccc2ccccc21 (stereo not given)
-0.6,9,O=C(CCc1ccccc1)NN1C(=O)c2ccccc2C1=O
-0.9,nt,FC(F)(F)c1ccccc1N=CNc1ccccc1C(F)(F)F
0.8,nt,COc1cc2c(cc1OC)/C(=C\C#N)NCC2
nt,22,Cc1ccc(S(=O)(=O)N(C)Cc2ccccc2)cc1C(=O)O
nt,-7,O=C(NCC(c1ccco1)N1CCCC1)c1ccc(CSc2ncn[nH]2)cc1 (stereo not given)
nt,-8,O=C(Nc1nccs1)c1c(O)c2ccccc2[nH]c1=O
nt,18,O=C(O)c1ccc(-c2ccc(C(=O)O)c(C(=O)O)c2)cc1C(=O)O
-0.8,4,O=C1CC(c2ccccc2)=Nc2ncccc2N1
nt,8,O=C(NCC1CCCO1)c1c(O)nc2sccn2c1=O (stereo not given)
-5.6,12,Cc1ccc(OCCc2nc3ccccc3[nH]2)cc1
-3.5,11,COc1cccc(C(=O)N2CC(C)OC(C)C2)c1 (stereo not given)
-2.0,6,Cc1ccc2cc3c(nc2c1)-c1ccccc1C3=NC1CCCCC1
nt,-13,Cc1ccc(-n2nc(C(=O)Nc3cccnc3)c3c4ccccc4n(C)c3c2=O)cc1
8.8,nt,COc1ccc(N2C(=O)/C(=C/c3cc(Cl)c(OCC(=O)O)c(Cl)c3)C(=O)NC2=S)cc1
5.1,1,O=C(NCc1ccco1)c1cccc(NC(=O)c2ccc(Br)cc2)c1
nt,2,O=c1[nH]c(CSc2nnc3n2CCCCC3)nc2scc(-c3ccccc3Cl)c12
nt,0,CCCN(C(=O)/C=C/c1ccc(S(=O)(=O)N(CC)CC)cc1)C1CCS(=O)(=O)C1 (stereo not given)
nt,35,COc1ccc(/C=N/N=C(N)N)cc1OC
5.6,1,CCOC(=O)c1cnn(C(=O)OCC)c1N
-4.2,nt,Cc1cccc2c1N(C(=S)Nc1ccccc1Cl)CCC2
nt,-8,CN(C(=O)COn1nnc2ccc(S(=O)(=O)N3CCOCC3)cc21)c1ccccc1
0.9,-1,CCCOc1ccc(/C(=N\O)C(C)(C)NO)cc1
-3.4,11,CCc1ccc(NC(=O)c2ccccc2Br)cc1
nt,-11,CCOC(=O)C1CCCN1S(=O)(=O)c1cccc2nsnc12 (stereo not given)
-0.5,17,CC1CCCC(NC(=O)COc2ncnc3ccccc23)C1C (stereo not given)
1.6,2,CCc1ccc(C(=O)CC2OC(=O)c3c2ccc(OC)c3OC)cc1 (stereo not given)
-1.1,-11,Cc1ccc(S(=O)(=O)N2CCCCC2)cc1C(=O)N1C(C)CCCC1C (stereo not given)
nt,-4,CCN(CC)S(=O)(=O)c1cccc(-c2nnc(SCC(=O)Nc3cc(C)c(Cl)cc3OC)o2)c1
-3.2,nt,O=C(O)c1cccnc1SCCS(=O)(=O)c1ccc(C(F)(F)F)cn1
nt,3,CC(C)c1ccccc1NC(=O)CN1C(=O)CCC1=O
nt,-7,NS(=O)(=O)c1ccc(N=P(N2CCOCC2)(N2CCOCC2)C23CC4CC(CC(C4)C2)C3)cc1
-0.6,nt,CC(=O)N1N=C(c2c(-c3ccccc3)c3cc(Br)ccc3[nH]c2=O)CC1c1ccc(F)cc1 (stereo not given)
-0.2,2,Cn1nnc(C(O)CN2CCOCC2)n1 (stereo not given)
-0.5,nt,O=C1NN(c2ccccc2)C(=S)Nc2ccccc21

(continued)
MgrA-DNA mod,Sa helicase inh,smiles
nt,-29,COc1ccc(CCNC(=O)CSc2nncn3c2cc2oc(C)cc23)cc1OC
nt,-7,Cc1ccc2c(c1)c(N=NC(=O)CCc1ccccc1)c(O)n2C(C)C
nt,10,c1coc(C2OCC(CN3CCCCC3)O2)c1 (stereo not given)
2.6,-14,O=C(N1CCC(O)(c2cccnc2)CC1)C12CC3CC(CC(C3)C1)C2
0.1,19,CC(=O)Nc1ccccc1N1CCCCC1
nt,7,O=c1c2c(nc(SCc3ccccc3)n1-c1ccccc1)CCS2
-9.0,-7,NS(=O)(=O)c1ccc(Nc2nc(-c3cccs3)cs2)cc1
nt,8,Fc1ccc2nc3n(c2c1F)CCCCCC3
-0.9,nt,Cc1cc(C(C)(C)C)ccc1NC(=O)CSCC(=O)O
-2.4,nt,O=S(=O)(c1ccc(Cl)cc1)c1ccccc1C(F)(F)F
3.5,nt,CCCn1c(=O)c2[nH]cnc2n(-c2ccccc2C)c1=O
4.6,11,OC(COC1CCCCC1)Cn1cnc2ccccc21 (stereo not given)
-3.8,2,CCC(=O)Nc1ccc2c(c1)ncn2C(C)(C)C
nt,-1,O=C(COc1cccc2ccccc12)N1CCN(S(=O)(=O)c2ccc3c(c2)OCCO3)CC1
1.1,2,O=C1NC2=C(CCc3ccccc32)C(c2ccccc2)N1 (stereo not given)
0.8,5,O=C(Nc1ccc(-c2nc3ccccc3s2)c(O)c1)c1ccccc1
nt,-15,O=C(Cn1c(=O)oc2cc(S(=O)(=O)NC3CCCC3)ccc21)NCc1ccc(F)cc1
-0.4,-5,CC1CC(=O)C2=C(C1)Nc1nc3ccccc3n1C2c1cccs1 (stereo not given)
3.8,2,C/C=C/c1c(F)c(F)c(Oc2ccc(C(=O)O)cc2)c(F)c1F
nt,8,COC(=O)c1nc(-c2ccc(C)cc2)oc1N1CCOCC1
2.7,nt,CCOc1ccc(C(=O)Nc2ccc(S(=O)(=O)Nc3nc(C)cc(C)n3)cc2)cc1
-1.1,6,O=C(c1ccc(Cl)cc1)N1CCCn2c1nc1ccccc12
-6.6,2,Cc1nc2ccccc2n1C(C)C(=O)O (stereo not given)
-0.6,nt,COc1ccc(COC(=O)C2=C(C)NC3=C(C(=O)CC(C)(C)C3)C2c2cc3c(cc2[N+](=O)[O-])OCO3)cc1 (stereo not given)
-0.2,-14,CCc1ccc(NC(=O)C(C)OC(=O)c2ccncc2)cc1 (stereo not given)
nt,-8,N#Cc1oc2ccccc2c1NC(=O)COC(=O)c1c2c(nc3ccccc13)CCCCC2
nt,2,COc1cc2c(cc1OC)C(SC)=NC(C)(C)C2
-4.8,-16,NNc1ccc(Cl)c(Cl)c1
2.1,nt,Cc1ccc(NC(=O)CCC(=O)O)cc1
1.1,6,O=C(N/C(=C/c1ccccc1)S(=O)(=O)c1ccccc1)c1ccccc1

6 structures from above, ordered by heavy-atom count, ascending:
MgrA-DNA mod,Sa helicase inh,smiles
4.6,11,OC(COC1CCCCC1)Cn1cnc2ccccc21 (stereo not given)
3.5,nt,CCCn1c(=O)c2[nH]cnc2n(-c2ccccc2C)c1=O
-0.2,-14,CCc1ccc(NC(=O)C(C)OC(=O)c2ccncc2)cc1 (stereo not given)
-0.4,-5,CC1CC(=O)C2=C(C1)Nc1nc3ccccc3n1C2c1cccs1 (stereo not given)
2.7,nt,CCOc1ccc(C(=O)Nc2ccc(S(=O)(=O)Nc3nc(C)cc(C)n3)cc2)cc1
nt,-1,O=C(COc1cccc2ccccc12)N1CCN(S(=O)(=O)c2ccc3c(c2)OCCO3)CC1

Next compounds follow.
MgrA-DNA mod,Sa helicase inh,smiles
0.7,-4,CCC(=O)Nc1ncnc2sc3c(c12)CCCC3
1.5,nt,CC(C)NC(=O)Nc1cccc(Cl)c1
nt,6,CN(Cc1ccccc1)C(=O)c1cnc2n(c1=O)CCS2
nt,16,O=C1CCC(c2ccc(Br)cc2)=NN1
nt,-18,N#CCSc1nnc(C2COc3ccccc3O2)o1 (stereo not given)
nt,-4,N#CCSc1nc2cc3c(cc2c(=O)n1CCCC(=O)NCc1ccc2c(c1)OCO2)OCO3
nt,7,O=C(COc1ccc(Cl)cc1)Nc1ccc2c(c1)CCCN2C(=O)C1CC1
nt,25,CC(Sc1nc2sc3c(c2c(=O)n1C)CCCC3)C(N)=O (stereo not given)
0.7,-2,CCCCN(C)C(=O)c1noc2c1COc1ccccc1-2
1.1,11,CCOC(=O)C1CCC(CN(Cc2ccccc2)S(=O)(=O)c2ccc(F)c(C)c2)CC1 (stereo not given)
-0.4,nt,O=C(O)c1csc(Cc2ccccc2)n1
1.3,nt,CC(=O)Nc1ccc(CC#N)cc1
-5.6,nt,Cc1ccc2nc(C)c3c(c2c1)N(c1ccccc1)CC3
0.2,3,CC(NC(=O)Nc1ccc2c(c1)N(C)C(=O)c1ccccc1S2)c1ccccc1 (stereo not given)
0.8,2,CCn1cc(C(=O)Nc2ccc(OC)cc2)c(=O)c2ccc(C)nc21
-1.2,-6,CC1=NC(C(F)(F)F)(C(F)(F)F)N=C(N2CCCCC2)O1
3.5,10,CNS(=O)(=O)c1ccc2c(S(=O)(=O)NC)c(OC)ccc2c1
nt,-20,COc1ccc(S(=O)(=O)N(C)c2ccnc(C(=O)N3CCC4(CC3)OCCO4)c2)cc1
nt,8,COC(=O)c1sc(N)c(C(=O)OC)c1CSc1nnc(Cc2csc(C)n2)o1
-5.0,7,Nc1cccc(C(=O)Nc2nccs2)c1
-1.1,-12,O=C(/C=C/c1cccs1)N1CCCC1
-2.8,4,CC1CCCC(C)N1C(=O)CCN1C(=O)C2C3C=CC(C3)C2C1=O (stereo not given)
-0.9,nt,Cc1onc(-c2c(Cl)cccc2Cl)c1N(C)C(=O)N1CCCCC1
6.0,nt,O=C(c1ccc(Cl)cc1)c1coc2c1cc(O)c1ccccc12
1.4,-1,Cc1ccc(S(=O)(=O)Nc2ccc(OC3OC(CO)C(O)C(O)C3O)cc2)cc1 (stereo not given)
-1.8,nt,O=c1[nH]nc(SCc2nc3ccccc3s2)n1Cc1ccco1
nt,-28,O=C(COc1ccccc1)N(Cc1cccs1)C1CCS(=O)(=O)C1 (stereo not given)
0.4,6,Cc1oc2cc(O)ccc2c(=O)c1-c1ccccn1
3.8,6,CCN1C(=O)c2ccc(C(=O)Nc3cc(C(=O)O)cc(C(=O)O)c3)cc2C1=O
nt,-19,Cc1cc2ccccc2n1CCNC(=O)c1cc2ccccc2oc1=O

By substructure: the entries above containing a CF3 group
MgrA-DNA mod,Sa helicase inh,smiles
8.7,nt,O=C1C=CC(=O)N1c1ccc(-n2ccc(C(F)(F)F)n2)cc1
-1.5,nt,O=C1CCCN1c1ccc(OC(F)(F)F)cc1
2.7,nt,FC(F)(F)COc1ccc(OCC(F)(F)F)c(-c2ncn[nH]2)c1
-0.9,nt,FC(F)(F)c1ccccc1N=CNc1ccccc1C(F)(F)F
-3.2,nt,O=C(O)c1cccnc1SCCS(=O)(=O)c1ccc(C(F)(F)F)cn1
-2.4,nt,O=S(=O)(c1ccc(Cl)cc1)c1ccccc1C(F)(F)F
-1.2,-6,CC1=NC(C(F)(F)F)(C(F)(F)F)N=C(N2CCCCC2)O1

Going on with the list.
MgrA-DNA mod,Sa helicase inh,smiles
-2.3,nt,FC(F)(F)c1ccnc(NCc2ccc(Cl)cc2)n1
0.0,11,Cc1oc2cc(Br)c(O)c(Br)c2c1-c1ccccc1
-1.7,-3,COC(=O)c1cc(NC(=S)NN2CCOCC2)cc(C(=O)OC)c1
-0.8,-2,O=C(O)c1cc2c(ccc3ccccc32)oc1=O
nt,6,N#CCCn1c(=O)n(CCC#N)c2ccccc21
0.3,nt,COc1ccc(-c2nc3c4c5c(sc4ncn3n2)C(C)(C)NC(C)(C)C5)cc1OC
3.2,-1,CC1C(C#N)=C(N)OC2=C1C(=O)CCC2 (stereo not given)
nt,9,O=C(C1CCCCC1)N1CCN(c2ccc(N3CCCCCC3)nn2)CC1

Compound activity: PubChem, ICCB-Longwood Screening Facility, Harvard Medical School

An excerpt; count on the stated rates, not on these rows.
